Screens as filed in PubChem BioAssay.
Ecoli growth – E. coli growth inhibition, primary screen, OD600. Escherichia coli growth, 23 h; hits give low values. OD600 absorbance (no concentration beside the values). actives 0.21% (n = 330,000);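 active = OD600 absorbance below the run mean of sample wells minus 3.6 SD, in any replicate, cut at about 0.56 in these data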;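 also: stock transfer was 300 nL into about 60 µL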
FGF22 binding – binders of human FGF22 protein, primary screen, FGF22 synaptogenesis inhibitor project, biophysical, thermal shift, single point; recombinant FGF22 thermal shift, SYPRO orange fluorescence; percent of sucrose octasulfate shift, DMSO zero; calls only at 9.99 µM; AID 651658, 2012; Fibroblast growth factor 22 (Homo sapiens), Q9HCT0; actives 1.5% (n = 340,000);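 active = melting point raised past a set limit in the mean and every replicate; three in four hits are not shown here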
LANA-H2A inh – blockers of LANA interaction with H2A/H2B – biochemical, FP readout, HTS, primary screen; cell-free LANA-H2A/H2B peptide, fluorescence polarization; inhibition, % (test concentration not listed); actives 0.6% (n = 320,000); in the data active = inhibition mostly above about 10%, no sharp cut-off; inactive = mostly below about 6.7%;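 also: stock transfer was 7.5 nL into about 10 µL; 0% = median of vehicle wells and 100% = median of positive control wells; one replicate is shown; the record names a cut of 25% in any replicate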
Target sequence (Q9QR71 whole entry, looked up): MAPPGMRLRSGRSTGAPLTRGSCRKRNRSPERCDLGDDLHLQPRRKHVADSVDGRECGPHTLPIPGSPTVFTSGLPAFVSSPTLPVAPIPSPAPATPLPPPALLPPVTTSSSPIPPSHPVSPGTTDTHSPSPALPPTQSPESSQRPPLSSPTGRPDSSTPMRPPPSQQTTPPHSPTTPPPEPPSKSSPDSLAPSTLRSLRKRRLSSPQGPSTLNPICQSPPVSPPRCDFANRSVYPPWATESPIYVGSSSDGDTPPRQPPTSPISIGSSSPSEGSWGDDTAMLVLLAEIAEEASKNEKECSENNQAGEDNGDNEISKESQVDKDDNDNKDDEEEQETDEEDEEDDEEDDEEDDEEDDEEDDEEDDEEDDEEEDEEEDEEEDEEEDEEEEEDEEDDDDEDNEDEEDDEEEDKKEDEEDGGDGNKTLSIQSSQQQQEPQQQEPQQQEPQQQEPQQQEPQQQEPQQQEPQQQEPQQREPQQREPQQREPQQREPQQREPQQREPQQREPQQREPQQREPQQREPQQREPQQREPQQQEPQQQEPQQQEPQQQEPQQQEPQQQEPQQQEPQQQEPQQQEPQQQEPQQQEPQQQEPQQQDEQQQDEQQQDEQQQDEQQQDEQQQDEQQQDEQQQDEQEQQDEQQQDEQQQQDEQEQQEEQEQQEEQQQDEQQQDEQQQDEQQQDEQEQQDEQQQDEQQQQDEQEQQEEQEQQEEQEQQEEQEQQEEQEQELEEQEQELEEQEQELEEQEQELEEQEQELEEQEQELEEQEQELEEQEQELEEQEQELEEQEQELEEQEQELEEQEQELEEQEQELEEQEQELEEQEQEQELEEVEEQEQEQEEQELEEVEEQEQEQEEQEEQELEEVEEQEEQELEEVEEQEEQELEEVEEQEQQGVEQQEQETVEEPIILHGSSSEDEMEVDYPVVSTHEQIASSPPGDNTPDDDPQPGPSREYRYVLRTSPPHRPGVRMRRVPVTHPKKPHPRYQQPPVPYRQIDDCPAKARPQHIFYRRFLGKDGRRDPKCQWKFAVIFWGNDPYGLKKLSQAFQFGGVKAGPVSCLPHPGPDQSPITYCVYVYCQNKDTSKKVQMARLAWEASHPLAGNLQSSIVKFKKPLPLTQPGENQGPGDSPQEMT
ALR inh – inhibitors of human ALR sulfhydryl oxidase, primary screen, biochemical, H2O2 detection, HRP-luminol luminescence, single point. actives 3.8% (n = 290,000). AID 485317, 2010. FAD-linked sulfhydryl oxidase ALR (Homo sapiens), P55789. inhibition, % (concentration not given with the values). purified ALR, DTT oxidation;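 active = mean and each replicate at 75% or more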;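 also: stock transfer was 7.5 nL into about 7.5 µL; 0% = neutral wells and 100% = wells with inactivated enzyme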
HNF4A DNA FP – change in binding of human HNF4A to DNA, primary screen, biochemical, fluorescence polarization, FITC-DNA | activity change, % at 10 µM | 1 h | Hepatocyte nuclear factor 4-alpha (Homo sapiens), P41235 | actives 0.3% (n = 360,000); in the data active = activity change above about 30%, passing the limit was not always enough;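 also: controls were the assay level and a saturating level of protein; the project sought stronger binding though the title names inhibitors; some compounds called inactive have numbers as strong as hits; positive values seem to mean higher polarization but the record does not say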
UCH37 inh – inhibitors of human UCH37 deubiquitinase, primary screen, biochemical, Ub-AMC cleavage, fluorescence. Ubiquitin carboxyl-terminal hydrolase isozyme L5 (Homo sapiens), Q9Y5K5. purified proteasome/UCH37. inhibition, % (test concentration not listed). actives 0.33% (n = 330,000). AID 588478, 2011;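 active = mean of two replicates above 20%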;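 also: 0% = compound-free wells with enzyme and 100% = wells lacking proteasome; stock transfer was 100 nL into about 20 µL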
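Reagent: Ub-AMC substrate; assay system: Proteasome-associated human UCH37 deubiquitinase; controls: no-proteasome and no-compound wells; read-out: % inhibition of Ub-AMC cleavage fluorescence; timing: 30 min preincubation with enzyme, 25 min cleavage at room temperature; signal: AMC fluorescence from Ub-AMC cleavage, excitation 355 nm, emission 460 nm; buffer or medium: Tris-HCl pH 7.4 plus ovalbumin, ATP-MgCl2, DTT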
B2AR ag – beta2AR agonists driving receptor internalization, primary screen, cell-based, FAP fluorogen, flow cytometry; Am2.2-beta2AR cells; reference of the scale not given here; response, % (test concentration not listed); actives 0.43% (n = 340,000); AID 504454, 2011;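 active = response above a set limit, near 3 SD of response in nonfluorescent compounds, cut at about 42% in these data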;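 also: stock transfer was 100 nL into about 11 µL; a reference agonist was the positive control; negative values mostly stem from fluorescent compounds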
* = called active by the depositor; i = inactive; . = no result given. Only part of the results is shown. The share of hits here may be higher or lower than overall.

Values run as follows: Ecoli growth	FGF22 binding	LANA-H2A inh	ALR inh	HNF4A DNA FP	UCH37 inh	B2AR ag
(1) O=C1CC(c2cccc(Cl)c2)CC(O)=C1C=NCCCO (centres undefined)
  0.72	.	3.9	-8	-4.2	5.2	-2
(2) CC(C)(C)c1ccc(C(=O)NN2C(=O)CSC2=S)cc1
  0.72	i	4.6	42	3.0	3.1	11
(3) CN(C)c1ccc(/C=N/NC(=O)c2ccc(Cn3cc(Br)cn3)o2)cc1
  .	.	-1.0	99*	-3.5	.	4
(4) CC(C)c1ccc(NC(=O)C(c2ccc3c(c2)OCO3)N2CCCCC2)cc1 (centres undefined)
  0.72	i	-1.8	-10	0.5	3.6	-5
(5) Cc1nc2c(cc1NC(=O)c1ccccc1)nc(C)n2Cc1ccccc1
  0.67	i	9.2	-6	0.1	5.3	-20
(6) Cc1ccc(CNC(=O)C2CC(c3cc(C(F)(F)F)cc(C(F)(F)F)c3)=NO2)o1 (centres undefined)
  0.67	i	-1.5	.	-1.3	4.2	2
(7) CCCn1c(=O)c(C(=O)NNC(=O)c2ccccc2Cl)c(O)c2ccccc21
  0.6	i	-3.4	16	1.0	-6.8	-1
(8) Cn1c(=O)c2c(nc(N/N=C/c3ccncc3)n2Cc2ccccc2)n(C)c1=O
  .	i	2.1	97*	2.2	.	-4
(9) CC(=O)c1ccc(Oc2ncnc(N)c2[N+](=O)[O-])cc1
  0.66	i	-4.6	-4	-2.9	0.9	5
(10) CCC(C)NC(=O)CSc1nc2cc3c(cc2c(=O)n1Cc1ccco1)OCO3 (centres undefined)
  0.73	i	.	.	-0.7	5.4	-2
(11) Nc1ncc(S(=O)(=O)c2ccc(Cl)cc2)c(N)n1
  0.68	i	0.5	-3	-4.0	1.9	3
(12) O=C(O)c1ccc(N/N=C/C(Br)=C/c2ccccc2)cc1
  .	i	-0.8	98*	-1.6	.	25
(13) CN(C)c1ccc(C2/C(=C(/O)c3ccc(Br)cc3)C(=O)C(=O)N2C)cc1 (centres undefined)
  0.65	i	-3.2	67	-1.0	6.0	-2
(14) COc1ccc(NC(=O)CCNC(=O)c2ccco2)cc1S(=O)(=O)N(C)C
  0.68	i	-9.9	-3	-0.3	8.7	-5
(15) CC(=O)Nc1ccc(S(=O)(=O)N2CCCN(c3nc(C)cc(C)c3C#N)CC2)cc1
  0.75	i	4.1	0	-1.4	-75	-9
(16) CCC(Sc1ncccc1C(=O)OC(C)C)C(=O)NCc1ccco1 (centres undefined)
  0.7	.	-3.2	2	1.0	2.0	7
(17) CC(=O)Nc1ccc(S(=O)(=O)c2ccc(N)cc2)cc1
  0.69	i	6.8	0	0.5	6.0	0
(18) Cc1cccc2c1-c1sc(C(=O)NCCCN3CCCC(C)C3)cc1CO2 (centres undefined)
  0.66	i	-1.4	-10	0.3	i	28
(19) COCCNC(=O)C(c1ccccc1C)N(C(=O)Cn1nnc2ccccc21)c1cccnc1 (centres undefined)
  0.72	.	-2.1	0	1.9	2.4	-1
(20) O=C(Nc1cccc(Cl)c1)NC1CCN(C2CCCCC2)C1 (centres undefined)
  0.69	i	-1.6	-14	0.8	8.5	-4
(21) Oc1ccc(-c2nnc(Nc3ccccc3)c3ccccc23)cc1
  0.7	i	6.5	99*	1.9	0.9	3
(22) CCOc1cc(C(=O)N/N=C/c2ccsc2)cc(OCC)c1OCC
  .	i	-10	.	-3.3	.	-10
(23) CCCCCCCC1CC(/C(C)=N/NC(N)=O)OC1=O (centres undefined)
  .	i	-3.3	-1	-0.2	.	-6
(24) CCC1CCCCN1C(=O)CSc1nnc(-c2cccs2)o1 (centres undefined)
  0.7	.	-0.3	0	-1.1	-2.9	-18
(25) CC(C)CCNC(=O)C(C)N(C(=O)Cn1nnc(-c2ccc(F)cc2)n1)C1CCCC1 (centres undefined)
  0.73	i	0.5	-1	-0.1	3.0	-1
(26) CC(C)=CCN1CCN(Cc2ccc(C)s2)CC1CCO (centres undefined)
  0.72	.	-2.7	-1	2.6	0.9	2
(27) O=C(CN1CCC(n2nnc3cc(F)ccc32)CC1)NCCc1nc2ccccc2[nH]1
  0.65	.	-7.1	-4	5.6	4.8	-3
(28) COc1c(C)cc(S(=O)(=O)NCc2ccco2)c(C)c1C
  0.65	i	-6.0	2	0.3	-1.6	2
(29) O=[N+]([O-])c1c(NCc2ccccc2)cc(N2CCc3ccccc3C2)c2nonc12
  0.7	i	0.6	-20	4.0	9.1	0
(30) Cc1cnc(NC2=NCCC2)s1
  0.68	i	1.4	6	3.6	-0.2	7
(31) Cc1ccc(NC(=O)Cc2c(C(=O)O)n(C)c3ccccc23)cc1F
  0.65	i	4.1	14	-1.2	1.9	1
(32) CCOc1ccccc1C(=O)Nc1cc(=O)n(C)c(=O)n1C
  0.77	i	-5.0	-1	1.7	6.6	5
(33) O=C(CCl)N(C1CCCC1)C1CCS(=O)(=O)C1 (centres undefined)
  0.71	i	2.4	-2	3.6	1.8	-10
(34) CCN(CC)C(=O)c1ccc(N)cc1
  0.66	i	-1.6	-3	-5.8	0.3	-2
(35) CNC(=O)NC(=S)NC(=O)c1cccc(Cl)c1
  0.7	i	1.5	7	0.4	1.6	-1
(36) O=C(Nc1ccccc1C(=O)O)/C(=C/c1ccc(Cl)cc1Cl)NC(=O)c1ccco1
  0.67	i	2.9	9	0.6	5.3	-4
(37) O=C(CN1C(=O)c2ccccc2C1=O)Oc1ccc(Cl)cc1
  0.69	i	-0.4	10	1.9	1.6	-14
(38) CC(C(=O)N1CCCC1)N1CCN(S(=O)(=O)c2ccc(OC(F)(F)F)cc2)CC1 (centres undefined)
  0.69	i	-2.8	.	-6.2	-0.4	-9
(39) CCOc1cc(CNn2cnnc2)cc(Br)c1OCC(=O)NC(C)(C)C
  0.65	i	3.6	-25	-4.0	0.5	-7
(40) CCCCCCn1cc(C(=O)O)c(=O)c2ccccc21
  0.71	.	0.3	-14	-1.6	3.9	12
(41) CCc1ccc2c(CN3CCN(S(=O)(=O)c4cccs4)CC3)cc(=O)oc2c1
  0.72	.	0.0	.	0.6	0.3	5
(42) C=C(C)COC(=O)C1CC2OC2CC1C(=O)OCC(=C)C (centres undefined)
  0.67	.	.	.	4.5	2.4	4
(43) CCC(C)c1nc2ccsc2c(N2CCOC2=O)c1-c1ccccc1 (centres undefined)
  0.67	i	-0.8	-8	-2.5	0.4	6
(44) Cc1ccc(C(=O)NC2(C(F)(F)F)NC(=O)N(c3ccc(Cl)cc3)C2=O)cc1 (centres undefined)
  0.71	.	-1.9	.	0.3	3.7	5
(45) COc1ccc([N+](=O)[O-])cc1NC(=O)c1ccc(CN(c2ccc(C)c(C)c2)S(C)(=O)=O)cc1
  0.72	i	2.9	-9	0.8	47*	3
(46) COc1cc(OC)c(CN2CCC(Cc3ccccc3)CC2)cc1Br
  0.69	i	-2.1	.	-2.7	5.0	-7
(47) C/C(=N\OC(=O)c1cccc(C)c1)c1sc(-c2ccccc2)nc1C
  .	.	2.5	-8	1.1	.	7
(48) CCOC(=O)C1=C(C)N=c2s/c(=C/c3ccc(OCC(=O)O)cc3)c(=O)n2C1c1ccc(F)cc1 (centres undefined)
  .	.	0.1	.	0.4	.	14
(49) CCCCc1cc(=O)oc2cc(OCC(=O)N[C@@H](Cc3ccccc3)C(=O)O)ccc12
  0.74	i	6.7	-12	0.3	-24	2
(50) CCOc1ccc(NC(=S)Nc2cccc3cnccc23)cc1
  0.64	.	1.3	10	-0.3	0.2	-3
(51) Cc1nc(NCCCN2CCOCC2)c2oc3ccccc3c2n1
  0.69	.	-2.9	-5	5.6	2.0	-2
(52) COCCNC(=O)/C(C#N)=C/c1c(N2CCN(C)CC2)nc2ccccn2c1=O
  0.69	i	-4.6	-1	5.1	-28	-1
(53) COc1ccc(OC)c(/C(C)=N/Nc2ccc(C(=O)O)cc2)c1
  .	.	-1.0	99*	-0.1	.	0
(54) COc1cccc(OCC(=O)NC2CCCCCC2)c1
  0.71	i	-0.8	-2	-3.0	2.5	0
(55) CN1CC(=O)N2[C@H]3c4ccccc4OC[C@@H]3[C@H](c3ccccc3)[C@]2(C)C1=O
  .	i	-7.5	-2	2.7	-1.4	-5
(56) NNc1nnc(-c2ccccc2)c(-c2ccccc2)n1
  0.67	.	-3.3	44	4.6	3.9	13
(57) O=C(Nc1ccncc1)Nc1ccc(F)cc1F
  0.67	i	0.3	-5	0.6	3.8	-6
(58) Cc1ccc(-n2cc(C(C)(C)C)[nH]c2=S)cc1
  0.68	.	-1.8	39	3.6	3.3	-1
(59) C=Cc1ccc2c(c1)OCCOCCOCCOCCOCCO2
  0.66	i	1.6	.	2.5	3.1	-9
(60) Cc1ccc(OCC2Cn3c(nc4c3c(=O)n(C)c(=O)n4C)O2)cc1 (centres undefined)
  0.76	.	-3.4	-2	3.8	5.0	1

Just ALR inh (two entries from above):
| No. | Compound | ALR inh |
| --- | --- | --- |
| 52 | COCCNC(=O)/C(C#N)=C/c1c(N2CCN(C)CC2)nc2ccccn2c1=O | -1 |
| 53 | COc1ccc(OC)c(/C(C)=N/Nc2ccc(C(=O)O)cc2)c1 | 99* |

Next records follow:
Values run as follows: Ecoli growth	FGF22 binding	LANA-H2A inh	ALR inh	HNF4A DNA FP	UCH37 inh	B2AR ag
(61) CCn1c(CNC(=O)c2ccco2)nnc1SCC(=O)Nc1cc(C(F)(F)F)ccc1Cl
  0.7	i	4.9	-8	1.5	-2.3	-5
(62) Oc1ccccc1N=Cc1ccc[nH]1
  0.67	.	-4.1	31	-3.1	4.9	4
(63) O=C(N/N=C/c1c(O)ccc2ccccc12)c1ccc(Br)o1
  .	i	0.7	-55	13	.	14
(64) COc1ccccc1NC(=O)CNc1ccc(F)c(Cl)c1
  0.72	i	-8.9	-17	3.3	3.7	0
(65) O=C(NCc1ccccn1)c1cc(-c2ccccc2)on1
  0.67	.	4.4	-1	-1.1	1.1	-1

Single records, as listed above:
CCn1c(CNC(=O)c2ccco2)nnc1SCC(=O)Nc1cc(C(F)(F)F)ccc1Cl is listed as Ecoli growth: 0.7; FGF22 binding: i; LANA-H2A inh: 4.9; ALR inh: -8; HNF4A DNA FP: 1.5; UCH37 inh: -2.3; B2AR ag: -5
O=C(N/N=C/c1c(O)ccc2ccccc12)c1ccc(Br)o1 is listed as Ecoli growth: .; FGF22 binding: i; LANA-H2A inh: 0.7; ALR inh: -55; HNF4A DNA FP: 13; UCH37 inh: .; B2AR ag: 14

Looked up one by one from the entries so far, five records:
Values run as follows: Ecoli growth	FGF22 binding	LANA-H2A inh	ALR inh	HNF4A DNA FP	UCH37 inh	B2AR ag
(63) O=C(N/N=C/c1c(O)ccc2ccccc12)c1ccc(Br)o1
  .	i	0.7	-55	13	.	14
(61) CCn1c(CNC(=O)c2ccco2)nnc1SCC(=O)Nc1cc(C(F)(F)F)ccc1Cl
  0.7	i	4.9	-8	1.5	-2.3	-5
(64) COc1ccccc1NC(=O)CNc1ccc(F)c(Cl)c1
  0.72	i	-8.9	-17	3.3	3.7	0
(62) Oc1ccccc1N=Cc1ccc[nH]1
  0.67	.	-4.1	31	-3.1	4.9	4
(65) O=C(NCc1ccccn1)c1cc(-c2ccccc2)on1
  0.67	.	4.4	-1	-1.1	1.1	-1
